# Bead autofluor – counter-screen for toxin protease inhibitors: compound fluorescence; compound autofluorescence counterscreen, microsphere flow cytometry; active compounds read high; fluorescence intensity (no concentration beside the values); 360,000 compounds, 3.1% hits;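 active means at least 3 SD above the mean of all compounds, about 16000 in these data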;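 further: 100 nL of 1 mM stock went into each well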
# PrP 5UTR inh – inhibition of PrP 5' UTR reporter expression; 340,000 compounds, 0.35% hits; cell-based PrP 5' UTR mRNA reporter, plate reader; inhibition, % (no concentration beside the values);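 active means every replicate at 50% or more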;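 further: 0 = median of the neutral control wells; tested in H4 reporter cells; numbers are from one replicate; inactives centre near -14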
# Numbers without * were called inactive.
# Values run as follows: Bead autofluor | PrP 5UTR inh
- O=C1C=C(c2ccc(OC(F)(F)F)cc2)C[C@@H](c2ccc(Cl)cc2)C1
 : 2722 | 2
- O=C1N[C@@H](Cc2ccccc2)COC(=O)[C@@H](Cc2ccc(F)cc2)CC/C=C/C[C@H]1CC(=O)N(CCO)Cc1ccccc1
 : 4056 | -3
- O=C(C[C@@H]1C/C=C\CCC(=O)OC[C@@H]2CCCN2C1=O)NCCO
 : 2702 | -7
- COC(=O)C1=C(c2c(C)noc2C)C[C@@H]2CC[C@H]1N2C(=O)NCc1ccc(F)cc1
 : 4035 | -11
- CC1CC(C)(C)CC2(C1)NC(=O)N(CC(=O)Nc1cc(C(F)(F)F)ccc1N1CCCCC1)C2=O (stereo unspecified)
 : 3553 | -25
- O=C(O)c1cc[c]([Hg][Cl])cc1
 : 9321 | -13
- CC(CNCCCn1ccc(NC(=O)OCc2ccccc2)nc1=O)c1ccccc1 (stereo unspecified)
 : 3642 | -17
- O=C1C=CC2(O[C@H](c3ccccc3)[C@@H](c3ccccc3)O2)[C@H](Sc2ccccc2O)C1
 : 3796 | 36
- COc1ccc(-c2sc3cc4c(cc3c2-c2ccc(OCCN3CCOCC3)cc2)OCO4)cc1
 : 2962 | -2
- c1ccc2c(c1)nc1n2CCC1
 : 3116 | 21
- CC1CCN(C(=O)c2[nH]cnc2C(=O)N[C@H](C)c2ccccc2)CC1
 : 3605 | -8
- CON(C)C(=O)/C=C/c1ccc([B-](F)(F)F)cc1
 : 3897 | -30
- CC(=O)Nc1ccc(NCc2ccc(-c3ccccc3)cc2)cc1
 : 4011 | -25
- CC(=O)C[C@@H](O)CC(=O)[C@H]1OC(=O)CC/C=C\Cc2ccccc21
 : 4620 | -3
- COc1ccc(NC(=O)N(C)C[C@H]2Oc3c(NC(=O)c4ccncc4)cccc3C(=O)N([C@H](C)CO)C[C@@H]2C)cc1
 : 4054 | -39
- Nc1cc(Cc2ccccc2)ccc1O
 : 3492 | -11
- Cn1c2nc(=O)[nH]c(=O)c-2cc2ccccc21
 : 3617 | -7
- COc1cccc(/C=N/NC(=O)C(=O)N/N=C/c2cccc(OC)c2O)c1O
 : 3989 | -38
- CC(C)n1c(CNC(=O)c2ccccc2F)nnc1SCC(=O)NC1CCCCC1
 : 3947 | -8
- CN1C[C@@H]2[C@@H]3C(=O)N(Cc4ccccc4)C(=O)[C@@H]3[C@](C)(C1=O)N2C(=O)c1ccc(C(F)(F)F)cc1
 : 3801 | -3
- C=C1c2nc3ccccc3n2C=C(c2ccc(C)cc2)N1c1ccccc1
 : 3215 | -22
- CCC12CCC3c4ccc(O)cc4CCC3C1CC(O)C2O (stereo unspecified)
 : 4651 | -14
- CCCCCCCC(=O)N/N=C/c1ccc(Br)cc1
 : 10991 | -9
- C[C@]1(OC(=O)/C=C/c2ccccc2)C[C@@H](O)[C@]2(O)C=CO[C@@H](O[C@@H]3O[C@H](CO)[C@@H](O)[C@H](O)[C@H]3O)[C@@H]21
 : 6273 | -8
- CN(C=O)c1cc([N+](=O)[O-])ccc1OCc1ccccc1
 : 4150 | -8
- COc1ccc(OC)c(NC(=O)C2CC(=O)N(CCc3ccc(F)cc3)C2)c1 (stereo unspecified)
 : 3460 | -28
- COc1ccc(NS(=O)(=O)c2cccc(C(=O)N/N=C/c3c(F)c(F)c(F)c(F)c3F)c2)cc1
 : 3815 | 1
- CCN1C[C@@H]2[C@@H]3C(=O)N(Cc4ccccc4)C(=O)[C@@H]3[C@](CC)(C1=O)N2C(=O)c1ccc(C(F)(F)F)cc1
 : 3485 | -10
- Cc1cc(C)c2nc(Nc3nc(CSc4nc5ccccc5[nH]4)cc(=O)[nH]3)nc(C)c2c1
 : 3383 | -1
- O=C(NN=Cc1ccc(N(CCCl)CCCl)cc1)c1cccc([N+](=O)[O-])c1
 : 3565 | -26
- CCN1C(=NCCCOC(C)C)N[C@@H](CCc2ccccc2)[C@H](C(=O)NCCCOC(C)C)[C@H]1C
 : 3578 | 2
- COc1cc(NCCCn2cnc3c(OCc4ccccc4)ncnc32)cc(OC)c1OC
 : 3991 | -14
- CCOC(=O)[C@H]1[C@H]2COc3ccc(Cl)cc3[C@@H]2N2C(=O)c3ccc(Cl)cc3NC(=O)[C@@]12C
 : 3029 | -10
- O=C1C(SCCO)=C(SCCO)C(=O)c2ccccc21
 : 5735 | -3
- Cc1ncc(CO)c(/C=N/NC(=O)c2ccoc2C)c1O
 : 4239 | 6
- Cc1cnc(NC(=O)Cc2ccc(S(=O)(=O)N3CCOCC3)s2)s1
 : 3488 | -47
- O=C(O)c1cccc2c1C(=O)c1cc([N+](=O)[O-])ccc1-2
 : 3896 | -23
- C[C@@H]1COC(=O)[C@@H](CC(=O)OC(C)(C)C)C/C=C\C[C@@H](CC(=O)N[C@@H](CO)Cc2ccccc2)C(=O)N1
 : 4072 | -19
- CC1Cc2cc(-c3csc(NC(=O)CCl)n3)ccc2N1C(=O)C1CC1 (stereo unspecified)
 : 3837 | -21
- Cc1ccc(OC[C@H](O)[C@H](C)NC(C)C)c2c1CCC2
 : 5708 | -22
- CN1C[C@@H]2[C@@H]3C(=O)N(Cc4ccccc4)C(=O)[C@@H]3[C@](C)(C1=O)N2C(=O)c1ccccc1
 : 3738 | -11
- COc1ccc(-c2oc(=O)c3cc(OC)c(OC)cc3c2C#CCCO)cc1
 : 3229 | -24
- C[C@H](CO)N1C[C@H](C)[C@H](CN(C)S(=O)(=O)c2ccccc2)Oc2ccc(NC(=O)NC3CCCCC3)cc2CC1=O
 : 4318 | -22
- CC1(C)CC[C@]2(C(=O)O)CC[C@]3(C)C(=CC[C@@H]4[C@@]5(C)CC[C@H](O)C(C)(C)[C@@H]5CC[C@]43C)[C@@H]2C1
 : 4249 | -7
- CCOC(=O)Nc1cccc2c1-c1ccc([N+](=O)[O-])cc1C2=O
 : 2975 | -30
- COC(=O)[C@H](NCc1ccc(OC)c(B(O)O)c1)C(C)C
 : 3936 | -12
- CN(C)c1ccc(C=NNC(=O)c2cccc3ccccc23)c(Cl)c1
 : 2740 | -41
- O=C(O)C1C=Cc2ccccc2N1C(=O)c1ccccc1 (stereo unspecified) (tested in a mixture with another compound)
 : 2945 | 25
- Cn1ccc2ccc(C3=CC(=O)C[C@H](c4ccc(F)cc4)C3)cc21
 : 3564 | -2
- COc1ccc([C@H]2CC(=O)C=C(c3ccc4[nH]ccc4c3)C2)cc1OC
 : 4038 | -2

# (listing goes on)
# Values run as follows: Bead autofluor | PrP 5UTR inh
- CCOC(=O)CCC(NC(=O)c1ccc(CNc2nc3cc(C(F)(F)F)ccc3nc2C(=O)OCC)cc1)C(=O)OCC (stereo unspecified)
 : 3449 | -12
- Nc1ccc2c(c1)Cc1cc(N)c(Br)cc1-2
 : 3827 | -36
- Cc1ccc(NC(=O)c2ncn(CCCN[C@H](C)c3cccc4ccccc34)n2)cc1C
 : 3935 | -8
- C=CCN=c1scc(-c2ccc3c(c2)NC(=O)CO3)n1/N=C(\C)c1ccccn1
 : 3278 | 0
- COc1ccc([C@H]2CC(=O)C=C(/C=C/c3ccccc3)C2)cc1OC
 : 3693 | -42
- O=C1N[C@@H](c2ccccc2)COC(=O)[C@H](Cc2ccc(F)cc2)C/C=C\C[C@H]1CC(=O)N(CCO)Cc1ccccc1
 : 3661 | -21
- Cc1cn(C2CC(O)C(CO)O2)c(=O)n(CCCc2ccccc2)c1=O (stereo unspecified)
 : 3974 | -43
- CC(=O)OC1CCC2(C)C(=CC(=O)C3C2CCC2(C)C(OC(C)=O)CCC32)C1 (stereo unspecified)
 : 3050 | -14
- NC(=O)Cn1cc(/C=N/NC(=O)c2ccc(Cn3cc(Cl)cn3)o2)c(-c2ccccc2)n1
 : 5278 | -13
- CN(N=Cc1cccc2cccnc12)c1ccc([N+](=O)[O-])cc1[N+](=O)[O-]
 : 3581 | -14
- O=c1cccc2n1CC1CNC[C@H]2C1
 : 4186 | -1
- COc1ccc(C2(C)C(C#N)C(=O)NC(=O)C2C#N)cc1 (stereo unspecified)
 : 4300 | -9
- O=[N+]([O-])c1ccc(N/N=C/c2ccc[nH]2)cc1
 : 7868 | -12
- CCOC(=O)C1CCNC(=O)C1=O (stereo unspecified)
 : 3514 | -32
- CNC[C@H]1Oc2c(NS(=O)(=O)c3ccc(F)cc3)cccc2C(=O)N([C@H](C)CO)C[C@@H]1C
 : 4360 | -6
- NS(=O)(=O)c1ccc(N/N=C/c2ccc(O)c(O)c2O)c([N+](=O)[O-])c1
 : 3097 | -14
- C/C(=N\OCC(=O)OCC(=O)N(C)c1ccccc1)c1ccc2c(c1)OCO2
 : 8193 | -3
- COc1ccc(-c2ccc3c(c2)[C@@H]2C[C@H]4[C@@H](C(=O)N2CC3)[C@H](C)ON4C)cc1
 : 3896 | 4
- COc1cc(OC)cc(-c2oc(=O)c3cc(OC)c(OC)cc3c2/C=C/c2ccc(F)cc2)c1
 : 3895 | 0
- CCOC(=O)C1=CC[C@H]2c3c(c4ccccc4n3C)C(=O)C1N2S(=O)(=O)c1ccc(C)cc1
 : 4882 | -47
- NC1=NC(=O)C(=Cc2ccccc2)S1
 : 2815 | 5
- CCOc1ccccc1-c1cc(C(=O)N/N=C/c2ccc3c(c2)OCO3)c2ccccc2n1
 : 3043 | -13
- N#CCCN(NC(=O)OCc1ccccc1)C(=O)OCc1ccccc1
 : 3577 | -9
- COc1cc(C(=O)NC2CCN(C)CC2)ccc1Nc1ncc2c(n1)N(C1CCCC1)CCC(=O)N2C(C)C
 : 2851 | 2
- COc1ccc(-c2cc(=O)c3c(OC)c(OC)c(OC)c(OC)c3o2)cc1
 : 4299 | -15
- C[C@H](CO)N1C[C@H](C)[C@@H](CN(C)C(=O)Nc2ccccc2)Oc2ccc(NC(=O)C3CC3)cc2C1=O
 : 3198 | -16
- COc1ccc(C2=CCCC2)c(OC)c1
 : 3539 | 44
- O=C(c1ccccc1)N(c1ccccc1)c1ccccc1O
 : 3621 | -14
- COC(=O)C1=C(C)N(Cc2ccccc2)C(=NCc2ccccc2)N[C@H]1c1cccc(C(F)(F)F)c1
 : 4712 | -15
- COc1cc2c(cc1O)C[C@H]1c3c(cc(O)c(OC)c3-2)CCN1C
 : 5679 | -8
- Cc1cc(NC(=O)NC(=O)c2ccccc2NC(=O)CN(C)C)ccc1Oc1ncc(Br)cn1
 : 3432 | -16
- Cc1ccnc(NC(=O)c2cccc(NC(=O)c3ccc(Cl)cc3)c2)c1
 : 3444 | -8
- COc1ccccc1NC(=O)Nc1cccnc1
 : 5098 | 2
- C#CCOCCOCCOCCNc1nc(N2CCN(C(=O)CCCCCCCCCCNC(=O)[C@H](CCCCN)n3cc(C)nn3)CC2)nc(N2CCN(C(=O)CCCCCCCCCCNC(=O)[C@@H]([C@H](C)O)n3cc(C)nn3)CC2)n1
 : 3218 | 0
- COc1cccc(/C(C)=N/Nc2ccc(S(=O)(=O)N3CCCCC3)cn2)c1
 : 8536 | -25
- COc1cc2c(cc1OC(C)=O)CCCCC2=O
 : 2964 | -16
- COc1ccc2c(c1)-c1nc(/N=C/c3ccc(O)c(OC)c3)sc1CC2
 : 1902 | -28
- COc1cc(C(=O)N/N=C(\Cc2ncc[nH]2)c2ccccc2)cc(OC)c1OC
 : 4072 | -7
- CCCOc1ccccc1/C=N/NC(=O)C1CC1
 : 5710 | -6
- Cc1ccc(S(=O)(=O)CS(=O)(=O)c2ccc(C)cc2)cc1
 : 3775 | -19

# 2 of the compounds above, in CSV form.
smiles,Bead autofluor,PrP 5UTR inh
O=C1N[C@@H](c2ccccc2)COC(=O)[C@H](Cc2ccc(F)cc2)C/C=C\C[C@H]1CC(=O)N(CCO)Cc1ccccc1,3661,-21
CC(=O)Nc1ccc(NCc2ccc(-c3ccccc3)cc2)cc1,4011,-25

# (cont.)
# Values run as follows: Bead autofluor | PrP 5UTR inh
- COC(=O)C1=C(c2c(C)noc2C)C[C@@H]2CC[C@H]1N2C(=O)NCCCOC(C)C
 : 2968 | -8
- COC(=O)C1=C(c2cc3ccccc3s2)C[C@@H]2CC[C@H]1N2C
 : 4344 | -31
- C=CCC[C@H](Cc1ccc(F)cc1)C(=O)OC[C@H](C)NC(=O)[C@H](CC=C)CC(=O)NCCO
 : 3645 | -18
- O=C(NCc1ccccc1)c1ccc(NC(=O)C2CCCCC2)cc1
 : 3476 | -11
- O=C(COc1ccccc1F)Nc1nc(-c2ccccn2)cs1
 : 3786 | -11
- C[C@]12CC[C@H](O)C[C@H]1CC[C@@H]1[C@@H]2C[C@@H](O)[C@]2(C)[C@@H](C3=CC(=O)OC3)CC[C@]12O
 : 4314 | 59*
- Cc1ccc2c(c1)[C@H]1[C@H](CO2)[C@H](c2ccccc2)[C@]2(C)C(=O)N(Cc3ccco3)CC(=O)N12
 : 3569 | -30
- C#CCOCCOCCOCCNc1nc(N2CCOCC2)nc(N2CCN(C(=O)[C@H](C)n3cc(CCC(=O)O)nn3)CC2)n1
 : 4262 | -12
- Cc1nc2cc(Cc3ccccc3)ccc2o1
 : 3743 | -44
- Cc1[nH]n(-c2ccccc2)c(=O)c1/C=N/NC(=O)c1cccc([N+](=O)[O-])c1
 : 3359 | -18
- Oc1ccc2ccccc2c1/C=C/c1ccc2c(Br)cc(Br)c(O)c2n1
 : 2807 | 9
- CC(=O)OC(C)C1C2=C(C(=O)CC1(C)O)C(=O)c1c(ccc(-c3ccc4c(c3O)C(=O)C3=C(C4=O)C(C(C)OC(C)=O)C(C)(O)CC3=O)c1O)C2=O (stereo unspecified)
 : 3026 | -12
- Cc1ccc(C(=O)N2CCC3CC2c2cc(-c4ccc5c(c4)OCO5)ccc23)cc1 (stereo unspecified)
 : 4331 | -18
- COc1cc2cnc(CCO[C@H]3CCCCO3)cc2cc1OC
 : 2796 | 0

# Of the compounds above, these contain bromine:
# Values run as follows: Bead autofluor | PrP 5UTR inh
- CCCCCCCC(=O)N/N=C/c1ccc(Br)cc1
 : 10991 | -9
- Nc1ccc2c(c1)Cc1cc(N)c(Br)cc1-2
 : 3827 | -36
- Cc1cc(NC(=O)NC(=O)c2ccccc2NC(=O)CN(C)C)ccc1Oc1ncc(Br)cn1
 : 3432 | -16
- Oc1ccc2ccccc2c1/C=C/c1ccc2c(Br)cc(Br)c(O)c2n1
 : 2807 | 9

# Only part of the results is shown; the hit share may differ from the screen's.
